# Screening data from PubChem.
# MLL AF4-AF9 inh – blocks AF4 peptide binding to human AF9; AlphaScreen, biotin-AF4 peptide binding to FLAG-AF9; AID 651704; 350,000 compounds, 0.47% hits; inhibition, % at 10 µM;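 active means every replicate reaching a set inhibition limit, whatever the replicate mean, cut at about 25% in these data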;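 further: 0% = plate neutral control median and 100% = total signal loss; the record names both 10 and 1 µM as test concentration; the first replicate is given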
# Target sequence (P42568 whole entry, looked up): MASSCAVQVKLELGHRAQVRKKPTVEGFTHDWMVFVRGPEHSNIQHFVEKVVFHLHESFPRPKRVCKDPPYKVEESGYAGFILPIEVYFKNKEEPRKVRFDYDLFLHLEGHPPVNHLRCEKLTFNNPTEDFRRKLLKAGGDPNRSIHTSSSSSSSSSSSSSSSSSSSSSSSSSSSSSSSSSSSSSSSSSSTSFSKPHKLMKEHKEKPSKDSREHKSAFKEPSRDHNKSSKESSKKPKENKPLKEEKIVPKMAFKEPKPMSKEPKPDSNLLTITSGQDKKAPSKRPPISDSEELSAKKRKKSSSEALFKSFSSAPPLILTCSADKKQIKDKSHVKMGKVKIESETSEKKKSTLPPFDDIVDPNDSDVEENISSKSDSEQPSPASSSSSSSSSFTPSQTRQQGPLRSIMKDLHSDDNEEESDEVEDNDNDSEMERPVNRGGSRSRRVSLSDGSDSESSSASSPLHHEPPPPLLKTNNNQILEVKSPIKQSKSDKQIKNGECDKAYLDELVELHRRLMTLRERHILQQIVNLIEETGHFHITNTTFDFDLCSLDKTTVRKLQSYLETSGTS
# Ecoli rRNA inh – inhibitors of bacterial rRNA selective over humanized ribosomes; E. coli WT GFP vs humanized-ribosome RFP mutants, fluorescence, 24 h; active compounds read low; DMSO median 0, no signal -100; GFP signal change (wild-type ribosome), % (no concentration beside the values); 350,000 compounds, 1.6% hits;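 active means significant combined selectivity score with lowered wild-type GFP, culture density cut under 30%, mutant RFP and density less affected; inactive means any of these conditions unmet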; further: one replicate is shown; some compounds called inactive have numbers as strong as hits
# FGF22 binding – binders of recombinant human FGF22 by thermal shift; Q9HCT0; SYPRO orange fluorescence; percent of sucrose octasulfate shift, DMSO zero; calls only at 9.99 µM; 340,000 compounds, 1.5% hits;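 active means melting point raised past a set limit in the mean and every replicate; three in four hits are not shown here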
# Target sequence (Q9HCT0 whole entry, looked up): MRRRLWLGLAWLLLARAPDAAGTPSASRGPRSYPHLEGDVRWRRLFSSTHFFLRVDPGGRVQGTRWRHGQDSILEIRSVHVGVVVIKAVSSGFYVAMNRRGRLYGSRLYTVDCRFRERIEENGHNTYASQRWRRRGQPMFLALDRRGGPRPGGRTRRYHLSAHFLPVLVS
# Ecoli rRNA inh OD600 – recorded beside Ecoli rRNA inh, whose call it bears; OD600 change, %; measured here: OD600 growth;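 optical density of the mix in the first replicate; 0 = DMSO median and -100 = no signal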
# Ecoli rRNA inh RFP – further read-out of Ecoli rRNA inh, marked with its call; RFP signal change, %; measured here: RFP humanized mutant strains;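 first replicate; 0 = DMSO median and -100 = no signal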
# * hit, by the source's call; i = inactive; . = no result given. Some of the compounds tested (hit frequency here may not be typical).
MLL AF4-AF9 inh	Ecoli rRNA inh	Ecoli rRNA inh OD600	Ecoli rRNA inh RFP	FGF22 binding	Compound
17	-7	-5	3.6	i	CO[C@@H]1CN(C)C(=O)c2ccc(NC(=O)c3nc4ccccc4s3)cc2OC[C@H](C)N(Cc2cncnc2)C[C@@H]1C
-3.0	-5	-8	2.3	i	N#Cc1ccc(S(=O)(=O)N2CCCCC2c2cc(C(=O)NCc3ccccc3)no2)cc1 (configuration not stated)
-0.6	-61	-70	-20	i	O=C(C[C@H]1CC[C@@H]2[C@H](COC[C@H](O)CN2C(=O)Nc2ccc(Cl)c(Cl)c2)O1)NCc1ccc(Cl)cc1
8.1	2	1	-1.5	i	C[C@@H]1CN([C@@H](C)CO)C(=O)c2ccccc2-c2ccccc2CO[C@H]1CN(C)S(=O)(=O)c1ccc([N+](=O)[O-])cc1
-1.1	-3	4	1.0	i	Cc1ccc(NC(=O)c2ccco2)nc1
-4.3	8	8	-1.3	i	CCCNC(=O)N(C)C[C@H]1Oc2ncc(C#C[C@H](C)O)cc2C(=O)N([C@H](C)CO)C[C@H]1C
-0.6	-2	-6	2.0	.	Cc1ccc(S(=O)(=O)N2CCC[C@H]2C(=O)NC2CCCCC2)cc1
0.4	14	10	5.6	i	CCc1nc2ccc(C(=O)Nc3cc(-c4ccccc4)ccc3OC)cn2c1N(CC)Cc1cccc(Br)c1
0.3	0	3	-0.2	i	O=C(N[C@H]1CC[C@@H](CCn2cc(-c3ccccn3)nn2)O[C@H]1CO)c1ccccc1
2.8	2	-24	4.2	i	CC(C)C#Cc1ccc2c(c1)O[C@@H](CN(C)Cc1cccnc1)[C@@H](C)CN([C@H](C)CO)S2(=O)=O
-1.4	2	-6	-0.1	i	Cc1cccc(OCCNC(=O)c2cc(C3CC3)nc3c2cnn3C(C)C)c1
-2.2	4	13	-2.4	i	O=C(NC1CCCC1)[C@@H]1[C@@H](CO)[C@@H]2Cn3c(cccc3=O)[C@@H]2N1C(=O)NC1CCCC1
-1.4	0	5	-1.8	i	C[C@H]1CCCCO[C@@H](CN(C)S(=O)(=O)c2ccccc2)[C@@H](C)CN([C@@H](C)CO)C(=O)c2cc(NC(=O)Nc3ccccc3)ccc2O1
1.1	1	-4	-1.7	i	C[C@@H]1CN([C@@H](C)CO)C(=O)c2cc(NC(=O)Nc3ccccc3)ccc2O[C@@H](C)CCCCO[C@@H]1CN(C)C(=O)CCCN(C)C
2.6	-1	7	3.6	i	C[C@H]1CN([C@@H](C)CO)C(=O)c2cc(NC(=O)Nc3ccccc3)ccc2O[C@H]1CN(C)C(=O)Nc1ccc(C(F)(F)F)cc1
-29	-1	4	-2.5	i	CCc1cccc(CC)c1NC(=O)CSc1nnc(C2CC2)n1N
-10	7	12	1.7	i	C[C@@H]1CN([C@H](C)CO)C(=O)c2cc(NC(=O)Cn3cnnn3)ccc2O[C@@H]1CN(C)C(=O)Nc1ccc2c(c1)OCO2
3.2	0	-5	2.6	i	CCc1nc2c(OCCC3CCCCC3)cccn2c1N(C)C(=O)c1ccc(C)cc1
2.4	-33	-35	-9.1	i	CSCCC(NC(=O)COc1ccccc1)C(=O)N1CCN(c2cccc(C(F)(F)F)c2)CC1 (configuration not stated)
0.8	6	8	-1.4	i	O=C(Nc1ccccc1N1CCOCC1)c1ccncc1
0.7	-27	-38	-3.2	i	COC(=O)[C@@]12C[C@@H](CC(=O)NCCc3ccccc3OC)C(=O)N(Cc3ccco3)C1=CCC(C)(C)C2
8.4	8	-10	7.1	i	O=C(CN1CCOCC1)N1CCCCN2[C@H](CO)[C@@H](c3ccc(C#Cc4ccccc4)cc3)[C@H]2C1
1.4	3	-2	5.4	i	Cc1ccc(S(=O)(=O)NCC[C@H]2CC[C@@H](NC(=O)Nc3cccc(F)c3)[C@@H](CO)O2)cc1
4.9	7	3	-0.7	i	CCCn1c(N)c(C(=O)CN(C)CC(=O)Nc2ccc(C)cc2)c(=O)[nH]c1=O
-1.0	3	7	-2.5	i	CN(C)CC(=O)Nc1ccc2c(c1)[C@@H]1C[C@@H](CC(=O)NCCc3ccccc3)O[C@H](CO)[C@@H]1O2
0.0	0	-6	3.8	i	CCCC(=O)Nc1ccc2c(c1)C(=O)N(C)[C@H]1CC[C@@H](CC(=O)NCc3ccccc3)O[C@H]1CO2
0.1	2	5	-0.6	i	COC(=O)C[C@H]1C[C@@H]2c3cc(NS(=O)(=O)c4cccc(OC)c4)ccc3O[C@@H]2[C@H](CO)O1
-10	-3	-4	-2.8	i	CCN(C(=O)CSc1nc(C2CC2)n(-c2ccccc2)n1)C1CCS(=O)(=O)C1 (configuration not stated)
-1.4	2	-5	-0.2	i	C[C@H](CO)N1C[C@H](C)[C@H](CN(C)Cc2ccc(C(F)(F)F)cc2)Oc2ccc(NC(=O)Nc3ccc(C(F)(F)F)cc3)cc2C1=O
4.3	0	-7	0.7	i	COc1ccc(NC(=O)N(C)C[C@H]2Oc3c(NS(=O)(=O)c4ccc(OC)cc4)cccc3C(=O)N([C@H](C)CO)C[C@H]2C)cc1
-4.8	6	17	-2.6	i	CCC(=O)N(C)C[C@@H]1Oc2ncc(C#C[C@H](C)O)cc2C(=O)N([C@@H](C)CO)C[C@@H]1C
-0.3	2	1	-2.5	i	CCCNC(=O)C1(C)CCCN(Cc2ccccc2F)C1 (configuration not stated)
-0.8	0	5	-1.7	i	CCNC(=O)[C@H]1[C@H](CO)[C@H]2Cn3c(ccc(/C=C/c4ccccc4)c3=O)[C@@H]1N2C(C)=O
-2.8	5	7	-2.2	i	C[C@@H]1CN([C@H](C)CO)C(=O)c2cc(NC(=O)CCCCCC(=O)Nc3ccccc3N)ccc2O[C@H]1CN(C)C(=O)Nc1ccc(F)cc1
0.5	2	-4	-0.7	i	Cc1noc(C)c1NC(=O)Nc1ccc2c(c1)C(=O)N([C@H](C)CO)C[C@H](C)[C@H](CN(C)S(=O)(=O)c1ccc(Cl)cc1)OCCCC[C@@H](C)O2
-3.7	-2	6	0.5	i	C[C@H]1CN([C@@H](C)CO)C(=O)CCCn2cc(nn2)CO[C@H]1CN(C)S(=O)(=O)c1cccc(F)c1
-0.1	5	2	2.0	i	CCN(CC)CCNC(Cc1ccccc1)c1cccc(OC)c1 (configuration not stated)
-0.1	4	1	0.3	i	C[C@@H]1CN([C@@H](C)CO)C(=O)c2cc(NC(=O)Cc3ccccc3)ccc2O[C@@H](C)CCCCO[C@@H]1CN(C)Cc1ccc(C(F)(F)F)cc1
-1.5	4	8	0.1	i	CC(C)C#Cc1ccc([C@@H]2[C@@H](CO)N(C(=O)C3CC3)[C@H]2C#N)cc1
-8.3	4	15	-0.6	i	CC=Cc1ccc2n(c1=O)C[C@@H]1[C@@H](CO)[C@H](C(=O)NCC)[C@H]2N1S(=O)(=O)c1cn(C)cn1 (mixture of isomers)

# The final 5 compounds of the part above are carried over, then new ones follow.
MLL AF4-AF9 inh	Ecoli rRNA inh	Ecoli rRNA inh OD600	Ecoli rRNA inh RFP	FGF22 binding	Compound
-3.7	-2	6	0.5	i	C[C@H]1CN([C@@H](C)CO)C(=O)CCCn2cc(nn2)CO[C@H]1CN(C)S(=O)(=O)c1cccc(F)c1
-0.1	5	2	2.0	i	CCN(CC)CCNC(Cc1ccccc1)c1cccc(OC)c1 (configuration not stated)
-0.1	4	1	0.3	i	C[C@@H]1CN([C@@H](C)CO)C(=O)c2cc(NC(=O)Cc3ccccc3)ccc2O[C@@H](C)CCCCO[C@@H]1CN(C)Cc1ccc(C(F)(F)F)cc1
-1.5	4	8	0.1	i	CC(C)C#Cc1ccc([C@@H]2[C@@H](CO)N(C(=O)C3CC3)[C@H]2C#N)cc1
-8.3	4	15	-0.6	i	CC=Cc1ccc2n(c1=O)C[C@@H]1[C@@H](CO)[C@H](C(=O)NCC)[C@H]2N1S(=O)(=O)c1cn(C)cn1 (mixture of isomers)
-9.7	0	5	-0.2	i	C[C@H](CO)N1C[C@H](C)[C@@H](CN(C)S(=O)(=O)c2cccs2)Oc2ccc(NC(=O)CCN3CCOCC3)cc2CC1=O
-0.6	-19	-34	8.4	i	Cc1ccc(-c2ccc3c(c2)O[C@H](CN(C)Cc2ccncc2)[C@@H](C)CN([C@@H](C)CO)S3(=O)=O)cc1
-0.6	-4	-5	4.3	i	O=C(Nc1ccccc1F)N[C@@H]1CC[C@@H](CCNS(=O)(=O)c2ccc(F)cc2)O[C@@H]1CO
1.0	-1	-6	-2.0	i	COc1ccc(S(=O)(=O)N[C@@H]2C=C[C@@H](CC(=O)NCCc3ccncc3)O[C@@H]2CO)cc1
1.2	-3	-10	4.1	i	C[C@@H]1CN([C@H](C)CO)C(=O)Cc2cc(NC(=O)Nc3cccc4ccccc34)ccc2O[C@@H]1CN(C)Cc1ccccc1
-1.9	1	0	2.3	i	C[C@@H]1CN([C@@H](C)CO)C(=O)c2cc(NC(=O)Cc3cn(C)c4ccccc34)ccc2O[C@@H]1CN(C)Cc1ccc(C(=O)Nc2ccccc2N)cc1
5.3	1	-1	-1.8	i	C[C@H](CO)N1C[C@H](C)[C@H](CN(C)C(=O)CCCN(C)C)OCCCC[C@H](C)Oc2ccc(NC(=O)Nc3ccccc3)cc2C1=O
1.7	-2	0	2.3	i	CNC[C@H]1Oc2ccc(NC(=O)Nc3ccc(C(F)(F)F)cc3)cc2C(=O)N([C@@H](C)CO)C[C@@H]1C
-3.5	8	8	-1.7	i	C[C@@H]1CCCCO[C@@H](CN(C)C(=O)CCCN(C)C)[C@@H](C)CN([C@H](C)CO)C(=O)c2cc(NC(=O)Cc3ccccc3)ccc2O1
-5.2	1	-5	-1.2	i	CNC[C@H]1OCCCC[C@@H](C)Oc2ccc(NC(=O)c3ccncc3)cc2C(=O)N([C@H](C)CO)C[C@H]1C
2.4	-1	-8	1.4	i	CN(c1ccccc1)S(=O)(=O)c1cccc(NC(=O)c2nn(C)c(=O)c3ccccc23)c1
-0.7	-2	-6	-4.0	i	CO[C@H]1CN(C)C(=O)c2ccc(NC(=O)C3CCCCC3)cc2OC[C@@H](C)N(C)C[C@@H]1C
0.3	6	6	5.9	i	CN(C)C(=O)c1cccc(-c2ccccc2[C@@H]2[C@@H](C#N)N(C(=O)C3CCCCC3)[C@@H]2CO)c1
-0.6	2	0	-0.5	i	CCCC(=O)N1CC2(C1)CN(C(=O)Cc1ccccn1)[C@@H](CO)c1[nH]c3cc(OC)ccc3c12
-0.2	-1	4	-0.6	i	C[C@H](CO)N1C[C@H](C)[C@H](CN(C)C(=O)Nc2ccc(F)cc2)Oc2ccc(NC(=O)C3CC3)cc2C1=O
-0.6	-42	-57	-6.5	i	CC1(Cc2ccccc2F)C(=O)Nc2c(Cl)ccc(Cl)c21 (configuration not stated)
-1.5	1	0	-1.2	i	CO[C@@H]1CN(C)C(=O)c2ccc(NC(C)=O)cc2OC[C@@H](C)N(C(=O)c2ccncc2)C[C@H]1C
5.6	7	15	5.7	i	C[C@@H]1CN([C@@H](C)CO)C(=O)c2cc(C#CCC3CCCC3)cnc2O[C@@H]1CN(C)C(=O)CN(C)C
-0.2	-6	-16	-2.0	i	CN(C)C(=O)[C@H]1[C@H](CO)[C@H]2Cn3c(ccc(-c4ccccc4)c3=O)[C@H]2N1Cc1ccccc1
2.5	1	4	-2.0	i	CC=Cc1ccc2n(c1=O)C[C@@H]1[C@@H](CO)[C@H](C(=O)NCC)[C@H]2N1C(=O)c1ccccc1 (mixture of isomers)
3.2	8	4	2.0	i	Cc1cc(C(=O)CSc2nnc(CCC(N)=O)n2C)c(C)n1C1CC1
2.4	-5	0	0.9	i	COc1ccc(CN(C)C[C@@H]2Oc3ccc(NS(=O)(=O)c4ccc(C)cc4)cc3CC(=O)N([C@@H](C)CO)C[C@H]2C)cc1
3.8	-3	-10	-3.3	i	CC(C)CCN1CCC[C@]2(N[C@H](c3ccccc3)[C@@H]3C(=O)N(Cc4ccccc4)C(=O)[C@@H]32)C1=O
-6.5	10	2	-0.3	i	O=C(COC(=O)/C=C/c1ccco1)NCCN1C(=O)CSC1=O
2.6	-62	-79	-18	i	COc1cc(OC)nc(Nc2nc(C(N)COCc3ccccc3)cs2)n1 (configuration not stated)
3.4	-5	-3	-1.2	i	Cc1ccc(-c2noc(CCC(=O)N3CCN(c4cc(C)ccc4C)CC3)n2)cc1
5.8	-4	-17	-1.2	i	C[C@@H]1CN([C@H](C)CO)C(=O)c2cccc(NC(=O)Nc3ccc(F)cc3)c2O[C@@H]1CN(C)Cc1ccc2c(c1)OCO2
-3.2	-2	-3	-0.9	i	CO[C@@H]1CN(C)C(=O)c2ccc(NC(=O)Nc3c(C)noc3C)cc2OC[C@H](C)N(CCC(F)(F)F)C[C@H]1C

# Random excerpt: three entries already listed.
MLL AF4-AF9 inh	Ecoli rRNA inh	Ecoli rRNA inh OD600	Ecoli rRNA inh RFP	FGF22 binding	Compound
2.4	-5	0	0.9	i	COc1ccc(CN(C)C[C@@H]2Oc3ccc(NS(=O)(=O)c4ccc(C)cc4)cc3CC(=O)N([C@@H](C)CO)C[C@H]2C)cc1
3.8	-3	-10	-3.3	i	CC(C)CCN1CCC[C@]2(N[C@H](c3ccccc3)[C@@H]3C(=O)N(Cc4ccccc4)C(=O)[C@@H]32)C1=O
5.8	-4	-17	-1.2	i	C[C@@H]1CN([C@H](C)CO)C(=O)c2cccc(NC(=O)Nc3ccc(F)cc3)c2O[C@@H]1CN(C)Cc1ccc2c(c1)OCO2
